Screens from PubChem.
MgrA DNA FP: modulators of Staphylococcus aureus MgrA DNA binding. fluorescence polarization. inhibition, %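 (about 10 µg/mL by stock and volumes)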. actives 0.13% (n = 84,000). AID 602314;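 active = above 50% in either of two replicates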;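 also: 0% = protein plus DNA without compound and 100% = DNA alone without protein; higher means less MgrA bound to DNA so lower polarization; one replicate is shown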
Sa helicase inh: S. aureus DNA helicase inhibition. purified S. aureus helicase, fluorescence unwinding assay; about half of the hits fall short of the stated cut. AID 485395. inhibition, %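 (tested at about 80 µM)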. actives 0.05% (n = 120,000);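 active = both duplicates at 50% or more, or one of them with a favoured structure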;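 also: 0% = mean of negative control wells and 100% = mean of positive control wells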
Numbers without * were called inactive. Only part of the results is shown; rates above refer to the full screens.

C=CCn1c(SCC(=O)NCc2cccnc2)nc2sc(C)c(C)c2c1=O was read as MgrA DNA FP -2.2.
For N#Cc1sc(C(N)=O)c(-c2ccccc2)c1-c1ccccc1 the results were MgrA DNA FP -1.1.
Screening COC(=O)C1=C(C)NC(=O)/C1=C\c1cc(C)n(-c2ccc(OC)c(Cl)c2)c1C returned MgrA DNA FP 0.7 and Sa helicase inh 2.
For Cc1ccc2c(CC(=O)OC(C)C(=O)Nc3ccc(N4CCOCC4)cc3)coc2c1 (stereo not drawn) the results were Sa helicase inh -8.
Screening CN(c1cc(=O)n2ccccc2n1)C1CCCCC1 returned Sa helicase inh -7.
`CC(C)(C)c1cc(NS(=O)(=O)c2ccc(C#N)cc2)no1` gave MgrA DNA FP -3.0.
For COc1ccc(-n2c(=S)[nH]c3cc(C(=O)NC4CCCC(C)C4C)ccc3c2=O)c(OC)c1 (stereo not drawn) the results were MgrA DNA FP 1.1 and Sa helicase inh 10.
Screening CCOC(=O)c1ccc(NC(=O)CCN2C(=O)/C(=C/c3ccccc3OC)SC2=S)cc1 returned MgrA DNA FP 2.1.
`COc1cccc(C(=O)CC(C(=O)O)c2ccc(F)cc2)c1` (stereo not drawn) gave MgrA DNA FP -2.4.
S=C(NCCn1cc(Br)cn1)Nc1ccc2c(c1)OCO2 was read as MgrA DNA FP 1.9 and Sa helicase inh 22.
Screening CN(C(=O)CSc1nncn2c1cc1sccc12)c1ccccc1 returned MgrA DNA FP 0.0 and Sa helicase inh -1.
For Cc1nc(NCc2ccco2)nc2c1C(=O)CC(C)C2 (stereo not drawn) the results were MgrA DNA FP 1.3 and Sa helicase inh 2.
Screening O=C1OCC(c2ccc(Cl)cc2)=C1c1cccs1 returned Sa helicase inh -34.
Screening Nc1nc2ccccc2n1Cc1ccc(Cl)c(Cl)c1 returned MgrA DNA FP -2.6 and Sa helicase inh 14.
For N#C/C(=C/c1cn(CCC(N)=O)c2ccccc12)c1ccc(C#N)cc1 the results were MgrA DNA FP 1.2 and Sa helicase inh 8.
For N#CCSc1nc2ccccc2c(=O)n1CCC(=O)NC1CCCCC1 the results were MgrA DNA FP -4.0 and Sa helicase inh 8.
For CCN1CCN(Cc2ccc(NC(=O)Cc3nc(-c4ccc(OC)cc4)no3)cc2)CC1 the results were Sa helicase inh 15.
`CCCc1cc(=O)[nH]c(SCC(=O)N2c3ccccc3NC(=O)C2(C)C)n1` gave Sa helicase inh -15.
For CCOc1ccc(-n2c(SCC(=O)N3CCC(C)CC3)nc3n[nH]c(C)c3c2=N)cc1 the results were Sa helicase inh -14.
`O=C(N1CCOCC1)C12CC3CC(CC(C3)C1)C2` gave Sa helicase inh 16.

2 compounds picked at random from those above, as already listed:
`COc1cccc(C(=O)CC(C(=O)O)c2ccc(F)cc2)c1` (stereo not drawn) gave MgrA DNA FP -2.4.
Screening CCOC(=O)c1ccc(NC(=O)CCN2C(=O)/C(=C/c3ccccc3OC)SC2=S)cc1 returned MgrA DNA FP 2.1.

Next section.
C=C(C)C(C)(C#CCN1CCCC1)OC(C)=O (stereo not drawn) was read as MgrA DNA FP 2.2 and Sa helicase inh 5.
For CCOC(=O)c1cc(C#N)c(N2CCN(S(=O)(=O)c3ccccc3)CC2)nc1C(F)(F)F the results were Sa helicase inh -12.
`CCCCCCCCCCCC1=C(O)C(=O)C=C(O)C1=O` gave MgrA DNA FP 21.
`Cc1cc(C)nc(NC(=NCc2ccc(Cl)cc2)NC(=O)C(C)N2C(=O)c3ccccc3C2=O)n1` (stereo not drawn) gave MgrA DNA FP -0.1 and Sa helicase inh 12.
CC(=O)N1CCN(CC(O)COc2ccc3oc4ccccc4c3c2)CC1 (stereo not drawn) was read as Sa helicase inh 17.
O=C(NC1CCCC1)C(c1ccccc1)N(Cc1cccs1)C(=O)Cn1nnc2ccccc21 (stereo not drawn) was read as MgrA DNA FP 0.7 and Sa helicase inh 15.
For CCCCn1cc(C2CC(=O)N(c3ccc(Br)cc3)C2=O)c2ccccc21 (stereo not drawn) the results were MgrA DNA FP -0.8 and Sa helicase inh 4.
Screening COc1ccc(CCNC(=O)CSc2nc3ccccc3o2)cc1 returned Sa helicase inh 10.
`O=C(NC1CCN(Cc2ccccc2)CC1)[C@H](Cc1ccccc1)N1Cc2ccccc2C1=O` gave MgrA DNA FP -0.2 and Sa helicase inh -7.
For CCc1ccccc1OCC(=O)O the results were MgrA DNA FP -0.5 and Sa helicase inh -9.
Screening COCCCNc1nc2ccccc2n(CC(=O)N2CCCCCC2)c1=O returned Sa helicase inh 1.
Screening CC(C)c1ccc(NC(=O)CSC2=Nc3ccccc3C3=NC(CC(=O)N4CCN(c5ccccc5)CC4)C(=O)N23)cc1 (stereo not drawn) returned Sa helicase inh 36.
Screening O=c1[nH]c(-c2ccccc2)nn1-c1ccc(Br)cc1Br returned MgrA DNA FP 1.1 and Sa helicase inh 6.
For CCCNC(=O)c1cnn2c1NC(c1cccc(OC)c1)CC2C(F)(F)F (stereo not drawn) the results were Sa helicase inh -26.
`O=C1CC2(CCCC2)C(=O)N1c1ccc(S(=O)(=O)N2CCc3ccccc3C2)cc1Cl` gave MgrA DNA FP 1.4.
Screening Cc1ccc(S(=O)(=O)NCC(=O)OCc2ccccc2)cc1 returned MgrA DNA FP -2.7.
`CCOc1cc(CNc2ccc(OC)cc2)ccc1OCC(=O)NC(C)(C)C` gave MgrA DNA FP -4.6 and Sa helicase inh 8.
Screening O=C(CN1C(=O)CSC1=O)Nc1nccs1 returned Sa helicase inh -12.
Screening COc1ccc(SCC(O)CNCc2ccc(Cl)cc2)cc1 (stereo not drawn) returned MgrA DNA FP -0.3.
Screening CN1CCCN(CC(O)COCc2cccs2)CC1 (stereo not drawn) returned Sa helicase inh 4.
For O=C(O)c1ccc(C2CCCCC2)cc1 the results were Sa helicase inh -4.
Screening Cc1csc(SCc2cc(=O)c(OC(=O)c3ccco3)co2)n1 returned Sa helicase inh -9.
For N#Cc1ccccc1Cn1c(=O)n(Cc2ccccc2)c(=O)c2ccccc21 the results were MgrA DNA FP -0.7 and Sa helicase inh 15.
NC(=O)C1CCN(Cc2cc(=O)oc3cc(O)ccc23)CC1 was read as Sa helicase inh 4.
Screening CC(=O)Nc1ccc(NC(=O)C(C)OC(=O)C2CC2)cc1 (stereo not drawn) returned MgrA DNA FP -0.2 and Sa helicase inh 10.
CCC(C)C(NC(N)=O)C(=O)NC1CCC(C)CC1 (stereo not drawn) was read as Sa helicase inh -7.
Screening CN(C)/N=C/c1ccc(N2CCOCC2)cc1 returned Sa helicase inh -7.
CCC(C(=O)O)N1C(=O)/C(=C/c2ccccc2)SC1=S (stereo not drawn) was read as Sa helicase inh -6.
`COC(=O)c1sc2nc3c(c(-c4ccc(Cl)cc4)c2c1N)CCC3` gave Sa helicase inh -18.
`O=C(COc1ccc(F)c(Cl)c1)n1cccn1` gave MgrA DNA FP -2.4 and Sa helicase inh 8.
`Cc1cc(SCCOc2ccc(Cl)cc2Cl)nc(N)n1` gave MgrA DNA FP -4.2 and Sa helicase inh 13.
For O=C(Cn1nnc2ccccc21)OCc1ccccc1 the results were Sa helicase inh -4.
Nc1nc(SCC(=O)OC2CCCC2)n[nH]1 was read as MgrA DNA FP 0.4 and Sa helicase inh -1.
For COc1ccccc1N1C(=O)CS/C1=N\N=C\c1ccccc1O the results were MgrA DNA FP 2.5.
Screening COC(=O)CCc1nc2c(ccc3ccccc32)s1 returned Sa helicase inh 5.
Screening CN(C)S(=O)(=O)c1ccc(C(=O)OCC(=O)N2CCCCC2)cc1 returned Sa helicase inh -7.
Cc1onc(-c2ccccc2)c1NC(=O)O/N=C(\N)c1ccc(Cl)cc1 was read as MgrA DNA FP -1.5.
For O=C(CSc1nnc(-c2ccccc2)o1)N(CC1CCCO1)c1nc2ccccc2s1 (stereo not drawn) the results were Sa helicase inh 3.
Screening CCC1CN(S(=O)(=O)c2cc(-c3onc(C)c3C)ccc2OC)c2cc(Cl)ccc2O1 (stereo not drawn) returned Sa helicase inh -3.
Cc1noc(C)c1S(=O)(=O)N(C)c1ccc(Br)cc1 was read as Sa helicase inh 18.

Reprinted from the part before: three entries, then new ones.
For O=C(CSc1nnc(-c2ccccc2)o1)N(CC1CCCO1)c1nc2ccccc2s1 (stereo not drawn) the results were Sa helicase inh 3.
Screening CCC1CN(S(=O)(=O)c2cc(-c3onc(C)c3C)ccc2OC)c2cc(Cl)ccc2O1 (stereo not drawn) returned Sa helicase inh -3.
Cc1noc(C)c1S(=O)(=O)N(C)c1ccc(Br)cc1 was read as Sa helicase inh 18.
`CN(CC(=O)Nc1ncc(Cl)cc1Cl)Cc1ccc(Cl)cc1` gave Sa helicase inh -4.
For CCOCCCn1c(SCC(=O)NC2(C#N)CCCCC2)nc2ccccc2c1=O the results were Sa helicase inh 2.
O=C1CCC(C(=O)OCc2ccccc2C(F)(F)F)=NN1 was read as Sa helicase inh 14.
For Cc1cc(C(=O)N/N=C2\CC(c3ccccc3)Oc3ccccc32)c(C)o1 (stereo not drawn) the results were Sa helicase inh -18.
Screening O=C(O)CSCC(=O)N1CCN(c2ccc(F)cc2)CC1 returned Sa helicase inh 17.
`O=c1oc2ccc(Cl)cc2n1CN1CCCCC1` gave MgrA DNA FP 4.2 and Sa helicase inh 8.
For CCc1ccc2[nH]c(=O)c(CN(CCN3CCCC3)C(=O)NCc3ccccc3)cc2c1 the results were MgrA DNA FP -1.8 and Sa helicase inh 3.
For CC(Sc1nnc(Nc2ccccc2F)s1)C(=O)NC1(C#N)CCCCC1 (stereo not drawn) the results were Sa helicase inh -16.
Screening O=C(CNC(=O)C1CCCCC1)NCc1ccco1 returned Sa helicase inh 3.
Screening COc1cc(NC(=O)CCN2C(=O)c3ccccc3C2=O)c(OC)cc1Cl returned MgrA DNA FP 0.5.
Screening O=C1c2ccccc2CC1Sc1nnc(-c2ccco2)c(-c2ccco2)n1 (stereo not drawn) returned MgrA DNA FP 96* and Sa helicase inh 2.
For CC(C)(C)c1ccc(NC(=O)C2CC2)c(Cl)c1 the results were MgrA DNA FP -0.3.
Screening COc1ccc(-n2cnc3cc(N=Cc4nc5ccccc5n4C)ccc32)cc1 returned MgrA DNA FP -0.7 and Sa helicase inh 2.
Screening CC(=O)Oc1ccc(N(C(C)=O)S(=O)(=O)c2ccc3ccccc3c2)cc1 returned MgrA DNA FP 2.6 and Sa helicase inh -4.
Cc1c(F)cccc1NC(=O)OCc1ccccc1 was read as MgrA DNA FP 0.0 and Sa helicase inh 1.
Screening COc1cccc2sc(Nc3sc4c(c3C(N)=O)CCCC4)nc12 returned MgrA DNA FP 0.6 and Sa helicase inh -2.
For NC(N)=NC(N)=Nc1ccc(Cl)cc1C(=O)c1ccccc1 the results were MgrA DNA FP -4.2.
N#CCCC(=O)c1ccco1 was read as Sa helicase inh 22.
O=C(CSC1=NCCS1)Nc1nc(-c2ccccc2)cs1 was read as MgrA DNA FP 1.9 and Sa helicase inh 8.
For COC(=O)c1ccc(NC(=O)C(C)Sc2ncn(-c3ccccc3)n2)cc1 (stereo not drawn) the results were MgrA DNA FP -0.2 and Sa helicase inh 10.

Grouped by structure: those above with a CF3 group
For CCOC(=O)c1cc(C#N)c(N2CCN(S(=O)(=O)c3ccccc3)CC2)nc1C(F)(F)F the results were Sa helicase inh -12.
For CCCNC(=O)c1cnn2c1NC(c1cccc(OC)c1)CC2C(F)(F)F (stereo not drawn) the results were Sa helicase inh -26.
O=C1CCC(C(=O)OCc2ccccc2C(F)(F)F)=NN1 was read as Sa helicase inh 14.

Among those listed so far, three contain a tert-butyl group:
`CC(C)(C)c1cc(NS(=O)(=O)c2ccc(C#N)cc2)no1` gave MgrA DNA FP -3.0.
`CCOc1cc(CNc2ccc(OC)cc2)ccc1OCC(=O)NC(C)(C)C` gave MgrA DNA FP -4.6 and Sa helicase inh 8.
For CC(C)(C)c1ccc(NC(=O)C2CC2)c(Cl)c1 the results were MgrA DNA FP -0.3.

Next part.
CC(C)c1nc2cc(N)ccc2n1C was read as MgrA DNA FP -5.0 and Sa helicase inh 1.
O=c1c2c(Br)c3c(=O)n(CCO)c(=O)c3c(Br)c2c(=O)n1CCO was read as Sa helicase inh -85.
`CCOc1ccc2nc(Nc3nc4c(c(=O)[nH]3)CCCC4)nc(C)c2c1` gave MgrA DNA FP -2.8 and Sa helicase inh 12.
For CCCOc1ccc(C(=O)NCC2(c3ccc(OC)cc3)CCOCC2)cc1 the results were MgrA DNA FP -2.1 and Sa helicase inh 3.
CCC(C)(C(=O)NC1CCCC1)N(C(=O)c1ccccn1)c1ccccc1 (stereo not drawn) was read as Sa helicase inh 4.
`O=C(Nc1ccc(-c2nc3ccccc3o2)cc1)c1ccc(Br)o1` gave MgrA DNA FP 1.5 and Sa helicase inh 6.
CCn1c(=Nc2ccc(N3CCOCC3)cc2)ccc2ccccc21 was read as MgrA DNA FP -0.8 and Sa helicase inh -2.
Screening Cn1nc(N2CCCCCC2)c(=O)n(C)c1=O returned Sa helicase inh -1.
`CCn1c(SCCCC(=O)c2ccc(Br)cc2)nnc1-c1cccs1` gave Sa helicase inh -11.
O=c1[nH]c(SCCOc2ccccc2)nc2ccccc12 was read as MgrA DNA FP -2.8 and Sa helicase inh 10.
CCOC(=O)c1c(-c2ccccc2)oc2ccc(OCC(O)CN(C)C)cc12 (stereo not drawn) was read as Sa helicase inh 1.
Cc1cc(C)c2cccc(N=CC3=C(O)CC(C)(C)CC3=O)c2n1 was read as MgrA DNA FP -1.2 and Sa helicase inh 0.
For CCOc1ccc(NC(=O)c2cc3sccc3n2Cc2ccc(C)cc2)cc1 the results were MgrA DNA FP 2.1 and Sa helicase inh -10.
Screening COc1ccc(N2CCN(C(=O)CCS(=O)(=O)c3ccc4nc(C)sc4c3)CC2)cc1 returned MgrA DNA FP -1.3 and Sa helicase inh -3.
For CCOC(=O)CSc1nnc(Cn2nnc3ccccc32)n1-c1ccc(F)cc1 the results were MgrA DNA FP 2.7.
Cc1cc(NS(=O)(=O)c2ccc(NC(=O)Nc3ccc4ccccc4c3)cc2)no1 was read as MgrA DNA FP 0.7.
NC(=O)C1CC2CCC1CC2 (stereo not drawn) was read as MgrA DNA FP -1.2.
